# Compound activity (PubChem)
# MbtI inh: blocks the Mycobacterium tuberculosis siderophore enzyme MbtI; P9WFX0; purified MbtI enzyme, fluorescence intensity read-out; inhibition, %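 (about 17 µg/mL by stock and volumes)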; 0.89% of 100,000 active; AID 493033;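 active means above 50% in both replicates, above 80% if mildly self-fluorescent; inactive means the rest, strongly fluorescent compounds included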;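 further: 0% = mean of negative and 100% = mean of positive controls; one replicate is shown; some compounds called inactive have numbers as strong as hits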
# Target sequence (P9WFX0 whole entry, looked up): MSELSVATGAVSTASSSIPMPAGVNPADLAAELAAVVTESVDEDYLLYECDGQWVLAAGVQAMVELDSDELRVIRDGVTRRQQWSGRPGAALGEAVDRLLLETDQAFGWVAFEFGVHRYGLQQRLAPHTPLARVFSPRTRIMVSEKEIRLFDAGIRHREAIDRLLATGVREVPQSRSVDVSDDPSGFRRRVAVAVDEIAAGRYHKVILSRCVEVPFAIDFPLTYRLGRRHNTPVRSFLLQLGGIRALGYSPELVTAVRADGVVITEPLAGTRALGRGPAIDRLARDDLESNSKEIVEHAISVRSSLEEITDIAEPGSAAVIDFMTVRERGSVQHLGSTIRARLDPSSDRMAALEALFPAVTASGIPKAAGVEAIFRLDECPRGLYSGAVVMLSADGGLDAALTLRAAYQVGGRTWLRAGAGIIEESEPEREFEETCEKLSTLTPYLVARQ
# MenB inh: Mtb MenB enzyme inhibition; P9WNP5; MenB enzyme assay, absorbance read-out; some hits fall short of the stated cut; inhibition, %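 (about 12 µg/mL by stock and volumes)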; 0.43% of 100,000 active; AID 540299;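 active means mean of two replicates above 30%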;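 further: 0% = no compound and 100% = wells with inactive enzyme; the first replicate is given; strong numbers were not always called active; inactives centre near -10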
# Target sequence (P9WNP5 whole entry, looked up): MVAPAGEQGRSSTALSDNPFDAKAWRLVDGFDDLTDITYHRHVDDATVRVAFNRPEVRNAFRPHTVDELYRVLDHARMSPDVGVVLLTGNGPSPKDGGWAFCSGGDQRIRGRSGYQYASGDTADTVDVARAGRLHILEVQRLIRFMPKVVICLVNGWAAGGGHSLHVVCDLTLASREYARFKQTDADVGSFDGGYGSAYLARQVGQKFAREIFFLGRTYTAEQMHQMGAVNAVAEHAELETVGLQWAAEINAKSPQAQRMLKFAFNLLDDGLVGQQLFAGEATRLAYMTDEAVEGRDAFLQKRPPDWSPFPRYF
# Polio RdRp inh: inhibitors of poliovirus RNA polymerase binding and polymerization | P03300 | poliovirus polymerase elongation, fluorescence polarization; active compounds read low | % elongation, % (compound at 16.7 µg/mL) | 0.66% of 150,000 active | AID 588519; in the data active means % elongation below about 90%; further: some results filed as inactive read as strong as hits
# Polio RdRp inh intensity: recorded beside Polio RdRp inh, whose call it bears; % elongation; measured here: total intensity read-out; formula for this scale not given here;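 total fluorescence in place of polarization; lower means less elongation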
# Numbers without * were called inactive; nt = not tested or not shown; & = joins results of further samples. This is a random part of the collection; any-hit rate near 1.9%.
# Letter code: A = MbtI inh; B = MenB inh; C = Polio RdRp inh; D = Polio RdRp inh intensity
> O=C(O)/C=C/c1ccc(I)o1
  A: 17	B: nt	C: 102	D: 96
> CCN1C(=O)C2C(c3cccs3)NC(C)(C(=O)OC)C2C1=O (stereo not given)
  A: -7	B: 15	C: 102	D: 104
> O=C(Oc1ccccc1)c1cc2cc(Br)ccc2oc1=O
  A: 5	B: -6	C: 102	D: 97
> O=C(NCCc1ccccc1)C1CC(=O)N(c2ccc(F)c(Cl)c2)C1 (stereo not given)
  A: -2	B: 5	C: 99	D: 96
> O=S(=O)(Nc1ccccc1OC(F)F)c1ccc2nnn(O)c2c1
  A: -9	B: -15	C: 104	D: 92
> CC(=O)Nc1ccc(S(=O)(=O)NC2CCCC2)cc1
  A: nt	B: -3	C: 105	D: 105
> Cc1noc(C)c1COC(=O)CCN1c2ccccc2Sc2ccccc21
  A: 5	B: -9	C: 102	D: 99
> O=C(Nn1cnc2ccccc2c1=O)C1CCCCC1
  A: 3	B: 12	C: 101	D: 97
> Cc1c(-c2cccc(Cl)c2)nc2ccccc2c1C(=O)OCC(N)=O
  A: 1	B: nt	C: 101	D: 97
> CCOC(=O)c1cc(-c2ccccc2)n(CC(=O)N(C)c2ccc(C)cc2)c1C
  A: -2	B: -26	C: 102	D: 99
> CC(=O)Nc1nc(SCc2ccccc2Cl)n[nH]1
  A: -5	B: 24	C: 101	D: 101
> Fc1ccc(C(c2nnc(-c3ccccc3)o2)N2CCc3ccccc32)cc1 (stereo not given)
  A: -3	B: -23	C: 103	D: 102
> CCC(/C=N/N1C(=O)c2ccccc2C1=O)CC
  A: 1	B: 5	C: 105	D: 105
> CCOC(=O)n1c(=S)oc2ccccc21
  A: 43	B: 5	C: 100	D: 104
> O=C(Cc1ccccc1)NC1CCN(C(=O)c2ccco2)CC1
  A: -9	B: 4	C: 100	D: 105
> COCCN1C(=O)CC(Sc2ncccc2C(=O)O)C1=O (stereo not given)
  A: 16	B: 4	C: 99	D: 100
> COc1cc(C(=O)CN2C(=O)c3ccccc3C2=O)c(OC)cc1Br
  A: nt	B: -7	C: 105	D: 111
> CCOC(=O)c1c(C)[nH]c(C(=O)c2cc3cc(Br)ccc3o2)c1C
  A: 16	B: -30	C: 108	D: 103
> Cc1cc(C)c(CSCCn2c(C)ccc2C)c(C)c1
  A: -8	B: -26	C: 112	D: 124
> CCOC(=O)c1ccc(N2C(=O)C(Oc3ccccc3)C2c2ccc(OCC)cc2)cc1 (stereo not given)
  A: nt	B: -9	C: 106	D: 111
> CN(C)c1nc(C(N)=O)nc(N2CCOCC2)n1
  A: 5	B: 11	C: 102	D: 104
> Nc1ccc(OC(F)(F)F)cc1
  A: nt	B: -12	C: 108	D: 113
> Cc1ccc(C(=O)Nc2nccs2)cc1I
  A: 1	B: -18	C: 100	D: 101
> O=C(OC1CCCCC1=O)c1cc(=O)c2ccccc2o1 (stereo not given)
  A: 1	B: 0	C: 101	D: 104
> CN1CCN(c2ccccc2NC(=O)C(Cc2ccccc2)n2cccc2)CC1 (stereo not given)
  A: -1	B: -9	C: 102	D: 96
> Clc1ccc(-c2noc3ncnc(NCCN4CCOCC4)c23)cc1
  A: 2	B: 13	C: 99	D: 103
> O=c1oc2ccc3ccccc3c2c2c1SC(C(F)(F)F)C2 (stereo not given)
  A: 10	B: -22	C: 102	D: 104
> Cc1ccccc1NC(=O)CSc1nc2scc(C)c2c(=O)[nH]1
  A: 7	B: 11	C: 102	D: 104
> CC1O[C@H](O[C@]2(O[C@H]3CC[C@@]4(C)C(=CC[C@H]5[C@@H]6C[C@H]7[C@H]([C@H](C)[C@H]8CC[C@H](C)CN87)[C@@]6(C)CC[C@@H]54)C3)C[C@@H](O[C@@H]3OC(CO)[C@@H](O)[C@@H](O)C3O)[C@@H](O)C(CO)O2)C(O)[C@@H](O)[C@H]1O (stereo not given in full)
  A: -14	B: -10	C: 103	D: 98
> Cc1noc(C)c1CSc1ncccc1C(=O)N(C)CCOc1ccc(Br)cc1
  A: 20	B: -5	C: 111	D: 113
> COc1ccc(CCNc2nc(N3CCCC3)nc(N3CCCC3)n2)cc1OC
  A: 2	B: -10	C: 101	D: 105
> COc1ccc(N(C=O)C(=S)SC)cc1
  A: 0	B: -14	C: 102	D: 108
> CC(C)(C)c1nnc(-c2ccc(Oc3cc(Cl)cc(Cl)c3)o2)o1
  A: 0	B: -18	C: 101	D: 99
> CCOc1ccc(C(=O)OCC(=O)NC2CCCCC2C)cc1 (stereo not given)
  A: -3	B: nt	C: 103	D: 107
> S=C(NCc1ccccc1)N1CCn2c(nc3ccccc32)C1
  A: -1	B: -30	C: 101	D: 100
> CNc1nnc(-c2ccccc2)c2ccccc12
  A: 1	B: -14	C: 101	D: 102
> CS(=O)(=O)Nc1nc2ccc(Cl)cc2s1
  A: -15	B: 16	C: 100	D: 102
> Cc1onc(-c2c(Cl)cccc2Cl)c1NC(=O)N(C)N
  A: -3	B: -4	C: 100	D: 103
> CNC(=O)NC(=O)C(Sc1nnnn1C)c1ccccc1 (stereo not given)
  A: -10	B: -26	C: 106	D: 110
> CNC1CCCCN(C(=O)c2ccc(F)cc2)C1=O (stereo not given)
  A: -10	B: -11	C: 106	D: 103
> NC(=O)c1sc2nc(-c3ccccc3)ccc2c1N
  A: nt	B: -24	C: 113	D: 127
> CSc1cccc(NC(=O)CSc2nc(C)cs2)c1
  A: 3	B: -16	C: 105	D: 103
> CNC(=O)CN(c1cc(C)ccc1C)S(C)(=O)=O
  A: -18	B: -12	C: 101	D: 104
> FC(F)(F)c1ccc(-c2nnc(SCc3ccncc3)n2Cc2ccco2)cc1
  A: -1	B: 8	C: 108	D: 112
> O=c1ssc(=NCc2ccccc2)n1Cc1ccccc1
  A: 8	B: 5	C: 93	D: 98
> CCN1CCN(C(=S)NC)CC1
  A: -2	B: -20	C: 104	D: 102
> CCCn1c(SCC(=O)N(C(C)C)C(C)C)nnc1-c1cccnc1
  A: -6	B: -14	C: 103	D: 101
> CN1CCN(CCNC(=O)c2nc(-c3cccnc3)no2)CC1
  A: -10	B: -17	C: 105	D: 108
> CCOC(=O)C1CCN(Cc2cccc(NC(=O)c3cc(C)on3)c2)CC1
  A: nt	B: -2	C: 103	D: 103
> Clc1ccc(OCOc2ccc(Cl)cc2)cc1
  A: -14	B: -12	C: 108	D: 98

# Continued.
# Letter code: A = MbtI inh; B = MenB inh; C = Polio RdRp inh; D = Polio RdRp inh intensity
> O=C1CN(C(=O)CC2CCCCC2)C(c2ccccc2)c2cc(Br)ccc2N1 (stereo not given)
  A: -3	B: -5	C: 103	D: 98
> CC(C)(Oc1ccc(Cl)cc1)C(=O)N1CCC2(CC1)NC(=O)c1ccccc1O2
  A: 2	B: -20	C: 104	D: 103
> CC(=O)N1CC2(C)CN(C(C)=O)CC(c3ccccc3)(C1)C2O (stereo not given)
  A: -18	B: -13	C: 104	D: 104
> O=C1c2ccccc2C(=O)N1CSc1nc2nn(-c3ccccc3)c(=O)c-2c2n1CCCCC2
  A: -7	B: -19	C: 102	D: 105
> CC(C)CN(CC(C)C)C(=O)Cn1cnc2ccccc21
  A: -7	B: 7	C: 103	D: 102
> Cc1cc(C)cc(NC(=O)COc2ccccc2C)c1
  A: -1	B: nt	C: 100	D: 102
> Cc1nn(Cc2cccc(C(=O)Nc3nc4ccc(S(C)(=O)=O)cc4s3)c2)c(C)c1Cl
  A: 82	B: 0	C: 99	D: 103
> NC(=S)N/N=C(/C(=O)c1ccccn1)c1ccccn1
  A: 91*	B: -8	C: 74*	D: 83*
> COc1cccc(N2C(=S)NC3c4ccccc4OC2(C)C3C)c1 (stereo not given)
  A: 1	B: -28	C: 100	D: 104
> Cc1cc(N2CCN(C)CC2)ccc1NC(=O)c1ccc(S(=O)(=O)Nc2ccccc2F)cc1
  A: -3	B: -14	C: 101	D: 103
> COC(=O)C1=CN(c2ccc(F)cc2)C=C(C(=O)OC)C1c1cccc(O)c1
  A: 110	B: -25	C: 102	D: 98
> c1ccc2c(c1)c1ccccc1n2CN1CCOCC1
  A: -21	B: -12	C: 103	D: 105
> O=c1sc2ccccc2n1Cc1ccccc1
  A: nt	B: -11	C: 106	D: 111
> Cc1ccc(-c2noc(=O)n2CC(=O)Nc2ccc(S(=O)(=O)N3CCCC3)cc2)cc1
  A: -3	B: -16	C: 103	D: 103
> CCOC(=O)c1cc(C)sc1/N=C/C1C(=O)CCCC1=O
  A: 0	B: -55	C: 104	D: 106
> COc1ccccc1CNC(=O)c1cccs1
  A: 11	B: 5	C: 104	D: 109
> Nc1nnnn1CC(=O)OCC(=O)Nc1ccccc1
  A: nt	B: 1	C: 102	D: 104
> Cc1cc(C(=O)COC(=O)c2cc(=O)[nH]c3ccccc23)c(C)n1C
  A: 12	B: -34	C: 99	D: 90
> COc1ccccc1CNc1ccc2c(c1)ncn2-c1ccccc1OC
  A: nt	B: -48	C: 106	D: 110
> CC(=O)NC(=O)/C(C#N)=C/N1CCN(c2ccccc2)CC1
  A: 24	B: 0	C: 98	D: 96
> CC(C)c1ccc(-c2csc3ncn(N)c(=O)c23)cc1
  A: nt	B: -4	C: 101	D: 102
> Cc1ccc(C(=O)NCCc2nnc3ccc(SCC(=O)NC4CCCCC4)nn23)cc1
  A: 2	B: 3	C: 100	D: 102
> Cc1nn(-c2ccccc2)c(C)c1C1NCCNC1=O (stereo not given)
  A: 10	B: -34	C: 99	D: 92
> CCCc1ccc(C(=O)C(C)OC(=O)C2=NNC(=O)CC2)cc1 (stereo not given)
  A: 5	B: -27	C: 105	D: 107
> COc1ccc(C2CCCCCN2)cc1 (stereo not given)
  A: -2	B: -13	C: 103	D: 102

# Profiles as entered above:
# CCC(/C=N/N1C(=O)c2ccccc2C1=O)CC reads MbtI inh: 1; MenB inh: 5; Polio RdRp inh: 105; Polio RdRp inh intensity: 105
# COc1ccc(C2CCCCCN2)cc1 (stereo not given) reads MbtI inh: -2; MenB inh: -13; Polio RdRp inh: 103; Polio RdRp inh intensity: 102
# CCOC(=O)c1ccc(N2C(=O)C(Oc3ccccc3)C2c2ccc(OCC)cc2)cc1 (stereo not given) reads MbtI inh: nt; MenB inh: -9; Polio RdRp inh: 106; Polio RdRp inh intensity: 111

# (listing goes on)
# Letter code: A = MbtI inh; B = MenB inh; C = Polio RdRp inh; D = Polio RdRp inh intensity
> CCOC(=O)/C=C1\CCC=C1N1CCOCC1
  A: 19	B: 9	C: 105	D: 114
> CCc1ccc(C2CC(=O)N3CN(c4ccccc4)CSC3=C2C#N)cc1 (stereo not given)
  A: 14	B: -17	C: 100	D: 99
> Cc1c(S(=O)(=O)c2ccc(Cl)cc2)csc1C(=O)N(c1ccccc1)S(C)=O (stereo not given)
  A: -9	B: 0	C: 109	D: 115
> O=C(CCCN1C(=O)NC2(CCCC2)C1=O)Nc1ccc2c(c1)OCCCO2
  A: -13	B: -34	C: 101	D: 103
> Cc1ccc2nc3c(c(N)c2c1)CCN3c1ccccc1
  A: 99	B: -31	C: 105	D: 100
> Cc1c(NC(=O)CN2CCC(C)CC2)c(=O)n(-c2ccccc2)n1C
  A: -2	B: -2	C: 101	D: 98
> COc1cc2c(cc1OC)CN(CC(N)=O)CC2
  A: -3	B: 0	C: 103	D: 115
> CC(C)(C)C(=O)N(CCc1ccccc1)Cc1nc2ccccc2c(=O)[nH]1
  A: -29	B: 7	C: 101	D: 103
> Cc1coc2cc3oc(=O)c4c(c3cc12)CCCCC4
  A: 37	B: 7	C: 101	D: 102
> CCc1ccccc1NC(=O)Cn1ncc2c(=O)oc3ccccc3c21
  A: -4	B: -25	C: 105	D: 106
> CC1Oc2ccccc2N(CC(=O)NCC2CCCO2)C1=O (stereo not given)
  A: -8	B: 5	C: 103	D: 102
> CN(c1ccccc1)S(=O)(=O)c1ccc(C(=O)Nc2nccs2)cc1
  A: 9	B: -22	C: 103	D: 103
> Fc1ccc(-c2ccc(NCc3ccccc3)nn2)cc1
  A: -5	B: -51	C: 104	D: 101
> Cc1ccc(-n2c(-c3nn(C)cc3Cl)n[nH]c2=S)cc1
  A: 14	B: -48	C: 102	D: 107
> Cc1nn(Cc2ccccc2)c2sc(C(=O)OCC(=O)N(C)C)cc12
  A: 11	B: -3	C: 101	D: 102
> C=CCN(CC=C)Cc1c(C)[nH]c2ccc(OC)cc2c1=O
  A: 116	B: -3	C: 104	D: 101
> COc1ccc(CCn2cnc3sc4c(c3c2=N)CCCC4)cc1OC
  A: -12	B: -24	C: 104	D: 108
> Cc1cccn2c(=O)c(C=C(C#N)C#N)c(Sc3nc4ccccc4s3)nc12
  A: 4	B: 6	C: 96	D: 106
> Cc1ccc(CS(=O)Cc2ccc(C(=O)NC3CCCCC3)o2)cc1 (stereo not given)
  A: 5	B: 0	C: 101	D: 98
> O=C(Cc1ccc(Cl)cc1)OCc1nnc(-c2ccccc2)o1
  A: 17	B: 0	C: 102	D: 104
> CCN(CC)S(=O)(=O)c1ccc(/C(O)=C2\C(=O)C(=O)N(CCOC)C2c2ccccc2F)cc1 (stereo not given)
  A: -15	B: -10	C: 100	D: 103
> CCCCC/C=C\C/C=C\C/C=C\CCCCC(=O)O
  A: -5	B: 6	C: 99&99	D: 102&101
> O=C(Nc1ccc(-c2ccc(N3CCCC3)nn2)cc1)C(F)(F)F
  A: 25	B: -6	C: 105	D: 103
> CNC(=O)NC1CCCCc2sccc21 (stereo not given)
  A: -11	B: -9	C: 101	D: 101
> O=C(CC12CC3CC(CC(C3)C1)C2)Nc1ccc2c(c1)COC2=O
  A: -9	B: -4	C: 101	D: 105
> CCOC(=O)CCC1(CCC(=O)OCC)c2ccccc2-c2nc3ccccc3cc21
  A: nt	B: -23	C: 103	D: 107
> CCc1ccc2[nH]c(=O)c(CN(CCCN3CCOCC3)C(=S)NC)cc2c1
  A: -28	B: 23	C: 101	D: 103
